Compound activity: PubChem BioAssay, several laboratories
Sa ugtP lethal: compounds lethal to S. aureus RN4220 ugtP deletion mutant; OD600 growth, 16 h; some inactives read as strong as hits; growth inhibition, % (no concentration beside the values); 330,000 tested, 0.54% active; AID 1259309;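 active = z-score under -3 and OD600 up to 0.15 on both plates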;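 also: plate controls were untreated wells for no effect and antibiotic for full effect; wells of about 80 µL received 100 nL stock; the first replicate is given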
PrP UTR inh: suppresses PrP 5' UTR mRNA reporter expression; 340,000 tested, 0.35% active; cell-based PrP 5' UTR mRNA reporter, plate reader; inhibition, % (concentration not given with the values); AID 488862;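 active = every replicate at 50% or more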;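 also: 0 = median of the neutral control wells; tested in H4 reporter cells; numbers are from one replicate; inactives centre near -14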
Mtb hypoxia inh: Mtb hypoxia fluorescent reporter inhibition | M. tuberculosis hypoxia-regulated fluorescent reporter, fluorescence | fluorescence inhibition, % (no concentration beside the values) | 300,000 tested, 0.1% active | AID 1159583;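 active = 35 to 45% if threefold the growth effect, above 45% if 1.5-fold the growth effect; inactive = the rest, general growth blockers included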;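 also: wells of about 50 µL received 100 nL stock; 0% = vehicle wells and 100% = reference inhibitor wells; whole bacteria with a GFP reporter of the hypoxia response; strong numbers were not always called active; many hits fall short of the cut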
BJeLR lethal: kills HRASV12-expressing BJeLR cells | 300,000 tested, 0.17% active | BJeLR (HRASV12) viability, CellTiter-Glo ATP luminescence, 48 h; reference of the scale not given here | inhibition, % (no concentration beside the values);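 active = replicate mean above 50%; inconclusive = above 50% but judged a plate artefact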;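 also: 50 nL library stock added to about 25 µL; numbers are from one replicate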
Bead autofluor: counter-screen for toxin protease inhibitors: compound fluorescence; compound autofluorescence counterscreen, microsphere flow cytometry; active compounds read high; AID 624483; 360,000 tested, 3.1% active; fluorescence intensity (no concentration beside the values);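 active = at least 3 SD above the mean of all compounds, about 16000 in these data; inconclusive = too few beads counted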;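 also: 100 nL of 1 mM stock went into each well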
RN4220 kill: S. aureus RN4220 growth inhibition; 330,000 tested, 0.33% active; OD600, 16 h; inhibition, % (test concentration not listed);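 active = z-score of -3 or lower and OD600 up to 0.18 on both plates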;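 also: plate controls were untreated cells for no effect and reference antibiotic for full effect; stock transfer was 100 nL into about 80 µL; one replicate is shown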
Mtb hypoxia inh growth: also measured in Mtb hypoxia inh; calls as there; growth inhibition, %; measured here: M. tuberculosis growth (absorbance);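 0% = vehicle and 100% = reference antibiotic; read after six days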
* marks the source's active call; other numbers are inactive results; ? = inconclusive; nt = no result given.

SMILES	Sa ugtP lethal	PrP UTR inh	Mtb hypoxia inh	Mtb hypoxia inh growth	BJeLR lethal	Bead autofluor	RN4220 kill
CCN(CC)CCCN(CC(=O)N(C)Cc1ccccc1)C(=O)c1ccc([N+](=O)[O-])cc1	3	-12	3	10	1	3701	-1.0
O=C(NCc1nnnn1-c1ccc(F)c(F)c1)C(=O)c1c[nH]c2ccccc12	0	-12	-6	-4	10	4885	0.6
CCNC(=S)NCc1ccc2c(c1)OCO2	nt	-15	nt	nt	-19	2219	nt
O=c1cc(-c2ccc(O)cc2)oc2c(-c3c(O)cc(O)c4c(=O)cc(-c5ccc(O)cc5)oc34)c(O)cc(O)c12	-16	2	nt	nt	nt	5691	-0.2
CCOC(=O)C1CCN(S(=O)(=O)c2ccc3[nH]c(=O)ccc3c2)CC1	-1	-35	5	7	11	5470	-5.5
COc1ccc(NC(=O)C(CCSC)NC(N)=O)cc1Cl (stereo unspecified)	2	-42	14	-4	6	4182	-3.7
CCN(CC)C(=O)COn1c(SCC(=O)N(CC)CC)nc2ccccc2c1=O	-4	-21	2	10	nt	19592*	4.8
CCOc1ccc(C)cc1S(=O)(=O)n1ccc(C)n1	1	-11	nt	nt	5	2371	4.4
COc1ccc(S(=O)(=O)N2CCN(c3ccccn3)CC2)cc1OC	3	-10	8	0	4	6847	2.0
Cc1cc(C)cc(NCCC#N)c1	6	-17	10	8	-7	2430	5.9
CC(C)CNC(=O)C(=O)NCC1CCCN1S(=O)(=O)c1cccs1 (stereo unspecified)	3	-14	4	-3	5	?	0.9
COc1ccc(Cl)cc1NC(=O)NN1CCN(C)CC1	2	-13	5	-5	-2	6274	1.5
CC/C(C)=N\Nc1nc(-c2cc3cc(OC)ccc3oc2=O)cs1	nt	-94	nt	nt	9	5835	nt
CCC/C(O)=N\S(=O)(=O)c1ccc(N=NN(C)C)cc1	nt	-10	nt	nt	-1	2314	nt
CC1CCCCN1C(=O)/C=C/c1ccccc1[N+](=O)[O-] (stereo unspecified)	2	-9	7	8	11	2591	1.1
COc1cc(Oc2ccccc2)nc(N)n1	8	-15	3	3	1	6247	5.2
COc1ccc(-n2c(SCC(=O)Nc3nccs3)nc3c(c2=O)SC(C)C3)cc1 (stereo unspecified)	5	16	-1	5	-6	5599	13
Cc1sc(NC(=O)C2C3C=CC(C3)C2C(=O)O)c(C(N)=O)c1-c1ccc(C(C)C)cc1 (stereo unspecified)	-10	2	6	7	-1	1972	4.8
C/C(CS(=O)(=O)c1ccc(Cl)cc1)=N/NC(N)=S	nt	-8	nt	nt	-2	2782	nt
Cn1c(=O)n(C)c2cc(S(=O)(=O)NCC(=O)O)ccc21	-2	-14	12	12	-16	4794	8.1
Cc1nn(Cc2cccc(C(=O)Nn3cc([N+](=O)[O-])cn3)c2)c(C)c1[N+](=O)[O-]	9	-7	-3	6	-10	2309	10
O=[N+]([O-])c1cc(F)cc(F)c1Nc1ccc(F)cc1	2	-34	10	6	nt	2794	2.6
COc1ccc2ccc(=O)oc2c1CC=C(C)C	-4	-21	nt	nt	3	6248	0.7
CS(=O)(=O)c1ccccc1-c1nc(-c2ccc(C(F)(F)F)cc2)no1	-10	-22	nt	nt	10	4343	-5.6

Arranged by number of heavy atoms (lowest first): six of the compounds above
SMILES	Sa ugtP lethal	PrP UTR inh	Mtb hypoxia inh	Mtb hypoxia inh growth	BJeLR lethal	Bead autofluor	RN4220 kill
COc1cc(Oc2ccccc2)nc(N)n1	8	-15	3	3	1	6247	5.2
COc1ccc(NC(=O)C(CCSC)NC(N)=O)cc1Cl (stereo unspecified)	2	-42	14	-4	6	4182	-3.7
CC/C(C)=N\Nc1nc(-c2cc3cc(OC)ccc3oc2=O)cs1	nt	-94	nt	nt	9	5835	nt
CCOC(=O)C1CCN(S(=O)(=O)c2ccc3[nH]c(=O)ccc3c2)CC1	-1	-35	5	7	11	5470	-5.5
O=C(NCc1nnnn1-c1ccc(F)c(F)c1)C(=O)c1c[nH]c2ccccc12	0	-12	-6	-4	10	4885	0.6
COc1ccc(-n2c(SCC(=O)Nc3nccs3)nc3c(c2=O)SC(C)C3)cc1 (stereo unspecified)	5	16	-1	5	-6	5599	13

Going on with the list:
SMILES	Sa ugtP lethal	PrP UTR inh	Mtb hypoxia inh	Mtb hypoxia inh growth	BJeLR lethal	Bead autofluor	RN4220 kill
Cc1cc(C)n(C(=O)CNC(=O)c2ccccc2Br)n1	10	-23	3	2	-2	6255	2.8
CCCOc1ccc(Br)cc1/C=N/NC(=O)c1cc(OC)c(OC)c(OC)c1	nt	13	nt	nt	5	2447	nt
O=C1C2C3C=CC(C3)C2C(=O)N1/N=C/c1cn(Cc2ccc(F)cc2)c2ccccc12 (stereo unspecified)	nt	-1	nt	nt	-4	4615	nt
CSc1nnc(-c2cccs2)n1-c1ccccc1	-7	-10	-2	13	2	20664*	-0.8
COCCCNC(=O)c1ccc2c(c1)OCO2	-4	-22	-7	10	7	5751	1.7
Cc1c(N=Nc2c(O)n(Cc3ccccc3)c(=O)[nH]c2=O)c(=O)n(-c2ccccc2)n1C	-8	2	12	16	11	7247	-0.1
CS(=O)(=O)N(CC(=O)NN=Cc1ccco1)c1ccccc1Br	-1	nt	-2	14	nt	nt	6.5
COc1ccc(-c2cc(=O)oc3c(C)c(OCC(=O)Nc4cccnc4)ccc23)cc1	-10	2	4	12	2	4272	-2.9
CN(C)CCN(C(=O)COc1ccc(Cl)cc1)c1nc2cc3c(cc2s1)OCO3	0	-5	0	-1	4	4254	0.8
Cc1ccc(NS(=O)(=O)c2cc(OCC(N)=O)c(C)cc2Cl)cc1C	8	-2	12	4	2	3041	8.2
O=C(CCCN=C1NS(=O)(=O)c2ccccc21)Nc1ccc(Cl)cc1	-2	-17	4	0	nt	7761	2.1
CCCCCc1c(O)nc(SCC(=O)NCC2CCCO2)[nH]c1=O (stereo unspecified)	8	-3	nt	nt	-11	2763	-7.8
Cc1csc(SCC(=O)NCc2ccc3c(c2)OCO3)n1	6	-15	-6	3	4	nt	0.1
Cc1ccc(N2CCN(C(=O)c3cccs3)CC2)cc1C	4	2	17	8	-13	3143	4.6
COc1ccc(C2C(C(C)=O)=C(C)Nc3ncnn32)cc1[N+](=O)[O-] (stereo unspecified)	13	-3	-4	-3	-10	2968	7.6
Nc1ccc(C(=O)CC(=O)Nc2ccc(Cl)cc2)cc1	12	-9	-9	6	2	3889	1.1
Brc1cccc(-c2cnc3n2CCCCC3)c1	-6	-7	nt	nt	3	2419	2.2
CC(=O)c1ccc(N2CCN(C(=S)Nc3cccc(F)c3)CC2)cc1	-2	-16	4	1	1	2549	4.4
COCCCNC(=S)Nc1cccc(SC)c1	-1	-7	13	3	0	4735	3.7
O=C(O)/C=C\C(=O)Nc1ccccc1C#Cc1ccc(Br)cc1	-3	-94	11	10	-8	10015	17
c1ccc(-c2ccc(-c3n(-c4ccccn4)c4ccccc4[n+]3-c3ccccn3)cc2)cc1	5	-25	-5	4	0	4595	-5.3
CCOc1ccccc1NC(=O)C(Sc1nnc2ccccn12)c1ccccc1 (stereo unspecified)	-1	-10	-4	2	-5	2865	0.4
Cc1ccc(N2CC(C(=O)Nc3ccc4c(c3)OCCO4)CC2=O)cc1C (stereo unspecified)	-6	1	10	4	-2	5231	2.9
O=C(CSc1nc2ccccc2c(=O)[nH]1)N1CCN(c2ccccc2)CC1	-2	1	-3	15	-11	6202	-3.5
CCOC(=O)C1CCN(Cc2ccc(O)c3ncccc23)CC1	-1	-3	10	12	12	8063	8.5
CC1=NN(C(=O)COc2ccccc2)C(O)(c2ccccc2)C1 (stereo unspecified)	3	-7	7	3	-3	2392	-0.6
COC(=O)C(C)Sc1nc2c(cnn2-c2ccc(C)cc2)c(=O)[nH]1 (stereo unspecified)	0	-31	14	11	3	4622	21
O=C(c1ccc2c(c1)OCCO2)N1CCN(c2ccccn2)CC1	-1	-10	10	-3	1	17835*	4.4
COc1ccc(CCNC(=O)c2cc(-c3ccc4c(c3)OCO4)on2)cc1OC	-1	nt	8	5	2	10766	4.8
COc1ccc(CCN(C(=O)C(F)(F)F)C(C(=O)NC2CCCCC2)c2ccc(C)s2)cc1OC (stereo unspecified)	-8	-4	18	1	1	9598	-1.8
N#CC(=C(O)c1ccc(S(=O)(=O)N(CCCl)CCCl)cc1)c1nc2ccccc2[nH]1	10	-26	-6	1	nt	2993	4.9
Cn1c(SCc2ccc(Cl)cc2Cl)nc(C(F)(F)F)cc1=O	1	-18	5	4	15	10747	7.9
CCC(C(=O)Nc1cccc(C(=O)O)c1C)c1ccccc1 (stereo unspecified)	17	-4	3	-7	-11	3089	7.1
CCOC(=O)C(CC)C(C)=NNC(=O)c1ccccc1[N+](=O)[O-] (stereo unspecified)	2	nt	5	-5	nt	nt	3.9
O=c1c2ccccc2ncn1-c1ccc([N+](=O)[O-])cc1Cl	11	-19	8	0	22	4506	6.5
O=C(O)c1cccc(CSc2nc(-c3ccc(Cl)cc3)cc(C(F)(F)F)n2)c1	26	-29	2	-2	4	10126	33
Cc1ccccc1CN1CCNC1=O	1	-9	11	1	1	19805*	0.2
COc1cccc(CNCCc2ccc3c(c2)OCO3)c1OC	3	-5	6	7	-8	4159	3.2
O=C(O)c1ccccc1C(=O)Nc1ccccn1	4	-11	7	9	-10	23171*	3.4
Cn1c(=O)c2c(nc3n2CC(O)CN3c2ccc(O)cc2)n(C)c1=O (stereo unspecified)	-3	-17	9	3	2	3916	3.9
CCCc1nc2c(C)cc(C)cc2c(N)c1CC	-5	-35	-2	5	-5	10243	1.7
COCCn1c(SCC(=O)Nc2ccc(NC(C)=O)cc2)nc2ccccc2c1=O	17	-24	16	7	9	3393	5.3
Cc1cc(NS(=O)(=O)c2ccc(NC(=O)/C=C/c3cccc(Cl)c3)cc2)no1	7	-18	13	18	-7	5196	25
C=C(C)C1CC=C(C)/C(=N/Nc2ccccc2[N+](=O)[O-])C1 (stereo unspecified)	nt	-18	nt	nt	4	2400	nt
COc1ccc(NC(=O)N2CCN(C(=O)c3ccco3)CC2)c(OC)c1	9	-17	10	3	-4	5532	-0.2
Cc1ccc(C(=O)NC(=S)Nc2ccc(CN3CCOCC3)cc2)cc1	47	-45	3	4	1	5265	-0.6
Cc1c(-n2c(SCC(=O)NC(C)C)nc3ccccc3c2=O)c(=O)n(-c2ccccc2)n1C	-4	-17	-12	-12	-2	3349	1.2
CC(=O)N1CCN(c2ccc(NC(=O)c3ccc(Cl)c(Cl)c3)cc2)CC1	3	-49	4	16	-1	3952	6.5
COCCN1C(=O)NC(c2cccc(C(F)(F)F)c2)C(C(=O)OC)=C1C (stereo unspecified)	-11	nt	10	4	nt	nt	5.8
Cc1cc(-c2n[nH]c(=S)n2-c2ccc(C)c(C)c2)no1	-2	-11	5	8	1	10343	1.4
COc1cc(OC)cc(C(=O)NC(C(=O)Nc2nc(-c3ccc(F)c(F)c3)cs2)C(C)C)c1 (stereo unspecified)	-5	nt	0	0	nt	nt	-0.1
O=C(CSc1nnc(CNC(=O)c2cccs2)o1)Nc1ccc(F)cc1F	-1	-5	0	17	-2	5358	-1.0
Cc1c(CCC(=O)O)c(=O)oc2cc(OCc3cccc(Cl)c3)ccc12	-7	20	-2	-5	5	3151	4.9
CNC(C)C#Cc1ccc2oc3cccc(OC)c3c(=O)c2c1 (stereo unspecified)	nt	-59	nt	nt	1	3916	nt
O=C(ON=C1CCCc2ccccc21)c1cccc(Cl)c1	6	nt	5	4	nt	nt	6.2
COc1cc(/C=N\NC(=O)c2ccc(-c3ccccc3)cc2)ccc1OCC(N)=O	nt	1	nt	nt	1	7197	nt
O=C(NCc1cccnc1)c1cc2nc(-c3ccc4c(c3)OCO4)cc(C(F)(F)F)n2n1	8	-24	1	-1	-3	3842	-0.4
CN1C(=O)CC(N2CCN(CC(=O)N3CCCC3)CC2)C1=O (stereo unspecified)	3	-14	13	6	6	3298	1.6
COc1ncccc1C(=O)NCC(CC(=O)O)c1ccccc1 (stereo unspecified)	10	-13	-3	3	-2	16335*	4.7
O=C(N1CCC(n2nc(-c3ccccc3)oc2=O)CC1)C1(c2ccc(Cl)cc2)CC1	-3	-13	1	1	-4	5812	0.4
O=C(Nc1nnc(-c2ccccc2Cl)o1)c1ccc(S(=O)(=O)N2CCCCCC2)cc1	96*	nt	-5	11	10	nt	100*
